# Screening results as filed in PubChem BioAssay.
# Rango dissoc inh = qHTS Assay for Inhibitors of RanGTP induced Rango (Ran-regulated importin-beta cargo) - Importin beta complex dissociation | AID 540253, 2011 | Snurportin-1 (Homo sapiens) + GTP-binding nuclear protein Ran (Homo sapiens) + Importin … | Biochemical FRET Rango-importin beta, RanGTP-induced dissociation | hit rate 0.071% among 340,000 | Potency, µM (series often up to 46.1 µM), inactives show at the top dose activity change, negative = inhibition; active means falling FRET ratio curve, often poorly fitted, with flat reads before Ran was added; inconclusive means other falling curves, or compound fluorescence or quenching; inactive means flat or rising ratio curve;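 also: potency is read from the fitted curve at half-maximal effect; % of control where 0% means no effect; nearly all actives have a fitted effect of over 45% in size; -100% = wells without RanGTP and RCC1; the record marks most hits as doubtful in a second field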
#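 Rango/importin beta premix (0.1/0.25 uM final), PBS + 1 mM DTT + 0.02% Tween-20 + 0.1% BSA; cpd 5 min RT; FRET pre-read; + RanGTP-RCC1 (0.6 uM Ran, 2 mM GTP, 0.2 uM RCC1); 45 min RT; FRET post-read, ex 430, em 486/530 nm.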
# Rango-impB inh = qHTS Assay for Inhibitors of Rango (Ran-regulated importin-beta cargo) - Importin beta complex formation; hit rate 0.031% among 340,000; Potency, µM (doses to about 92.2 µM), without a hit: top-dose inhibition of complex formation; Rango CFP/YFP FRET sensor + importin beta, 45 min; active = rising FRET ratio curve, often small or poorly fitted; inconclusive = mostly compound fluorescence or quenching in the first reads; inactive = flat curves in all reads;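 also: potency is read from the fitted curve at half-maximal effect; 0% = DMSO wells and 100% = buffer wells lacking importin beta; nearly all actives have a fitted effect of over 15% in size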
#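 FRET biosensor (snurportin 1 IBB flanked by EYFP and cerulean), 50 nM, with compound 5 min, then 0.125 microM importin beta in PBS, 1 mM DTT, 0.02% Tween-20, 0.1% BSA. CFP/YFP ratio read after 45 min at room temperature; pre-read flags interference.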
# miR-21 reporter = qHTS Assay for Modulators of miRNAs and/orActivators of miR-21 | 340,000 tested, under 10 active | HeLa miR-21 FLuc reporter, luciferase, 48 h | Potency, µM (highest dose often 38.3 µM), inactives show top-dose reporter change, positive = more light | AID 2288, 2010; active = well fitted rising curve with a large enough effect; inconclusive = small, poorly fitted or top-dose-only effect; inactive = no such curve, though single readings can be large or run the other way;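 also: % of control where 0% means no effect; miR-21 action dims this reporter so a rising signal means less miR-21 action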
#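 Luminescence from a firefly luciferase reporter carrying a miR-21 binding site downstream, stably expressed under a CMV promoter in HeLa cells that make miR-21 endogenously, reports miRNA modulation after 48 h compound exposure up to approximately 40uM final.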
# GLA inh pH 4.5 = qHTS Assay for Inhibitors of Human alpha-Galactosidase at pH 4.5; activity change, negative = inhibition, % at 105 µM; 230,000 tested, under 10 active; AID 1467, 2008; purified enzyme, 4-MU-alpha-Gal fluorescence, pH 4.5; Alpha-galactosidase A (Homo sapiens), P06280; inconclusive = small, poorly fitted or top-dose-only inhibition, or a rising curve; inactive = flat fitted curve, though single readings scatter; no compound was filed as active;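 also: 0% = full activity with enzyme and -100% = basal without enzyme; dose as in the result columns while the protocol names 77 µM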
# Target sequence (P06280 whole entry, looked up): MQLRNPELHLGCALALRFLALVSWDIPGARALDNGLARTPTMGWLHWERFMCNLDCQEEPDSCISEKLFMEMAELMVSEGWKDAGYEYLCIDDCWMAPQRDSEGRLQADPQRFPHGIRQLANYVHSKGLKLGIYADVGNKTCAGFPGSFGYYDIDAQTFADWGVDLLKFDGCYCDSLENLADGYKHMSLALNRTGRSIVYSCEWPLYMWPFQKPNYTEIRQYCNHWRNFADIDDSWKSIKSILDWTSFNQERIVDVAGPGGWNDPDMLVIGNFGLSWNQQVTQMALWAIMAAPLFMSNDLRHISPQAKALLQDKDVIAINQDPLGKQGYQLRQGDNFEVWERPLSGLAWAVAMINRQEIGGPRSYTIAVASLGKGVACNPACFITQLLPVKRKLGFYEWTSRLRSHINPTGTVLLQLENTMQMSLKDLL
# Active calls of the source: *; u = inconclusive; x = no result given.
# Fields: Rango dissoc inh	GLA inh pH 4.5	Rango-impB inh	miR-21 reporter
- Cc1ccc(C(=O)O)c(NC=O)c1OCc1ccccc1
  -10%	x	-1.7%	x
- CCOC(=O)C1=CN(Cc2ccco2)S(=O)(=O)NC1c1ccc(F)c(Cl)c1 (configuration not stated)
  10%	x	-1.0%	x
- CN(C)S(=O)(=O)c1ccc(N2CCCC2)c(C(=O)Nc2ccc(F)cc2F)c1
  5%	x	0.3%	x
- COc1ccc(C(=O)C2CCCN(C(=O)c3ccoc3C)C2)cc1F (configuration not stated)
  -9%	-2	2.0%	2%
- CCS(=O)(=O)c1nc(S(=O)(=O)c2ccc(C)cc2)c(NCCN2CCOCC2)s1
  -1%	x	-0.1%	-5%
- COc1cc2c(c(OC)c1OC)CCc1cnoc1-2
  -1%	8	6.2%	4%
- CCCCCc1ccc(C(=O)CCC(=O)OCC(=O)N(CC)c2c(N)n(Cc3ccccc3)c(=O)[nH]c2=O)cc1
  -21%	x	0.2%	x
- COc1ccc(Cl)cc1C(=O)OCC(=O)NC(=O)c1cccn1C
  16%	7	-3.5%	-4%
- O=[N+]([O-])c1ccc(NS(=O)(=O)N2CCOCC2)cc1
  u	x	u	x
- COC(=O)[C@]1(Cc2ccccc2)N[C@H](c2ccc(-c3ccc4c(c3)OCO4)cc2)[C@@H]2C(=O)N(C)C(=O)[C@@H]21
  -7%	x	-3.4%	x
- COc1ccc2nc(C)c(C(N)=O)cc2c1
  33%	4	-1.0%	5%
- CC(=O)Nc1sc(N/N=C\c2cccc(Cl)c2)nc1-c1cccs1
  -11%	-5	-1.0%	-33%
- O=C(O)c1cc2c(s1)-c1ccccc1OC2
  -10%	27	2.0%	-11%
- CCOc1ccc(S(=O)(=O)NCc2ccc3c(c2)OCO3)cc1C(=O)O
  -5%	x	0.3%	-3%
- CC1(C)CC(=O)C(Sc2ccccc2C(=O)O)=C(O)C1
  -24%	3	2.0%	-13%
- Cc1cc(=S)[nH]c2ccccc12
  -3%	-5	3.0%	-3%
- COC(=O)C[C@H]1c2ccc(C(F)(F)F)cc2S(=O)(=O)N1Cc1ccccc1
  1%	x	1.4%	x
- CCC(C)N(C(=O)COC(=O)/C=C/c1ccc(O)c(OC)c1)C1CCS(=O)(=O)C1 (configuration not stated)
  -8%	1	-4.9%	-10%
- O=C(CNCc1ccc(Cl)cc1)Nc1cccc(C(=O)O)c1
  31%	-1	-2.5%	3%
- O=C(Nc1cccc(F)c1)N(Cc1ccc(Cl)cc1)CC(O)C(F)(F)F (configuration not stated)
  -10%	-15	-1.3%	u
- Cc1cc(C)nc(SCc2cc(=O)c(OC(=O)c3ccco3)co2)n1
  2%	14	0.9%	-7%
- COc1ccc(NC(=O)c2c(OC)cccc2OC)c(OC)c1
  0%	-6	0.4%	1%
- CC(C)N1CCN(C(=O)C2CCC(=O)N(CCc3cccc(F)c3)C2)CC1 (configuration not stated)
  -11%	x	1.5%	-4%
- COc1ccc(Nc2nc(-c3ccc(OC)cc3)c(CCC(=O)O)s2)cc1
  -29%	0	5.2%	-16%
- CCOC(=O)c1cc(NC(=O)Nc2ccccc2Cl)c(C)nc1C
  -6%	-1	-3.2%	-1%
- O=C(COC(=O)c1cccc(Cl)c1)Nc1ccc2[nH]c(=O)[nH]c2c1
  10%	x	-2.8%	x
- O=C(Cc1cccc([N+](=O)[O-])c1)Nc1cccc(C(=O)N2CCCCC2)c1
  11%	x	1.2%	x
- CCOc1ccccc1NC(=O)c1ccc(NC(=O)c2ccco2)cc1
  -16%	-17	2.2%	-11%
- Cc1ccc(NCc2nnc(SCC(=O)O)n2Cc2ccccc2)cc1Cl
  -4%	-3	0.4%	0%
- CCOC(=O)c1cc(-c2ccccc2)sc1NC(=O)C(C)OC(=O)c1cccnc1Cl (configuration not stated)
  0%	4	4.5%	-3%
- Cc1cc(C)c(C#N)c(Nc2ccc(F)cc2)n1
  2%	x	1.1%	-1%
- COc1ccc(CS(=O)(=O)c2nc(C)cc(C)c2S(C)(=O)=O)cc1
  15%	1	-0.9%	-3%
- COc1ccccc1NC(=O)c1ccc([N+](=O)[O-])o1
  34%	x	3.0%	x
- O=C(Nc1ccc(Cl)c(Cl)c1)N1CC=C(c2ccccc2)CC1
  -13%	-14	-1.8%	-17%
- Cc1[nH]n(-c2ccccc2)c(=O)c1N=Nc1ccccc1
  6%	7	1.6%	-25%
- COc1ccc(S(=O)(=O)N2c3ccccc3OCC2C(C)(C)C)cc1 (configuration not stated)
  -11%	-7	-2.2%	26%
- COc1ccc(C(=O)Nc2cccc(/C(C)=N/NC(=O)c3ccc([N+](=O)[O-])c(C)c3)c2)cc1OC
  -1%	-13	3.2%	-23%
- Cc1ccc(CC(=O)Nc2cc(C)ccn2)cc1
  18%	x	-0.5%	-25%
- COc1ccccc1CNC(=O)Cc1cc(=O)[nH]c(=O)[nH]1
  u	0	u	-3%
- CCCn1nnc(NC(=O)c2cccc(OCC(C)C)c2)n1
  2%	-2	-3.1%	-42%
- NS(=O)(=O)c1ccc(CCNC(=O)c2ccc(Cl)s2)cc1
  42%	x	-0.2%	-5%
- Cc1cc(C(F)F)n2nc(C(=O)Nc3cccc(S(=O)(=O)N4CCOCC4)c3)nc2n1
  1%	x	1.8%	-8%
- COc1ccc(C2NC(=O)NC(C)=C2[N+](=O)[O-])cc1 (configuration not stated)
  -13%	x	-3.0%	5%
- CCOc1[nH]n(-c2ccc(Cl)cc2)c(=O)c1C=Nc1ccc(C)cc1
  x	-12	x	-4%
- Cc1ccc(S(=O)(=O)c2nc(-c3ccccc3)oc2N2CCCC2)cc1
  -2%	x	-3.5%	x
- O=C(/C=C/c1ccc(-c2ccccc2[N+](=O)[O-])o1)c1ccccc1
  -10%	-11	-0.4%	-5%
- Cc1cc(C)n(-c2ccccc2C#N)n1
  -1%	0	-5.5%	-15%
- CN(Cc1cnc2nc(N)nc(N)c2n1)c1ccc(C(=O)NC(CCC(=O)O)C(=O)O)cc1C(F)(F)F (configuration not stated)
  -26%	x	u	x
- O=C(NC1CCCc2ccccc21)c1ccccc1Cl (configuration not stated)
  0%	-1	-3.3%	-4%
- Cc1cc(C)c2nc(N3CCCN(C(=O)c4cnccn4)CC3)c(C#N)cc2c1
  u	-2	u	-5%
- CCc1nc(SCc2cccnc2)c(C#N)cc1C
  1%	0	0.4%	-19%
- CCN(CC)c1ccc2cc(C(=O)Nc3ccccn3)c(=O)oc2c1
  u	7	u	-56%
- O=C(NCCO)/C(=C\c1ccc(Br)cc1)NC(=O)c1cccs1
  -5%	-27	u	-9%
- COc1ccccc1CCC(=O)N1CCC(n2nccc2NC(=O)CC(C)C)CC1
  -9%	x	-3.9%	-3%
- Cn1c(N)c(S(=O)(=O)N2CCN(c3ccccc3)CC2)c(=O)n(C)c1=O
  1%	-7	2.7%	0%
- CCCn1nnc(NC(=S)NC(=O)/C=C/c2ccc(Cl)cc2)n1
  -5%	1	-0.6%	-1%
- CC(C)(C)OC(=O)C(C1NC(C(=O)O)C(C)(C)S1)N1C(=O)c2ccccc2C1=O (configuration not stated)
  13%	x	0.5%	x
- COc1cc(/C=C2\CCCc3c2nc2ccccc2c3C(=O)O)cc(Cl)c1O
  u	x	u	-7%
- Cc1ccccc1NC(=O)/C(=C/c1cccs1)NC(=O)c1ccco1
  -3%	-4	-0.3%	-9%
- CCOC(=O)N1CCN(C(=O)COc2ccc3c(c2)C(=O)CC2(CCN(C(C)=O)CC2)O3)CC1
  -2%	18	0.5%	0%

# The closing two records of the part above come first, to join the parts:
# Fields: Rango dissoc inh	GLA inh pH 4.5	Rango-impB inh	miR-21 reporter
- Cc1ccccc1NC(=O)/C(=C/c1cccs1)NC(=O)c1ccco1
  -3%	-4	-0.3%	-9%
- CCOC(=O)N1CCN(C(=O)COc2ccc3c(c2)C(=O)CC2(CCN(C(C)=O)CC2)O3)CC1
  -2%	18	0.5%	0%
- CCOc1ccc(Cl)cc1S(=O)(=O)NC1CCCC1
  9%	x	-0.1%	-3%
- O=C(Nc1ccc(Cl)cc1C(=O)NCC1CCCO1)c1ccco1 (configuration not stated)
  24%	-3	-0.2%	0%
- CCOC(=O)CSc1nnnn1-c1cc(OC)ccc1OC
  -9%	7	2.7%	0%
- O=C(Nc1ccsc1C(=O)O)c1cccc(C(F)(F)F)c1
  10%	x	-1.1%	-72%
- CCn1c2ccccc2c2cc(NC(=O)CSc3nnc(-c4cccc(F)c4)o3)ccc21
  31%	1	5.8%	3%
- Cc1ccc(C(=O)Nc2ccc(C(=O)N/N=C/c3ccncc3)cc2)cc1
  x	3	x	-10%
- Cc1ccc2c(c1)c1ncnc(N3CCOCC3)c1n2C
  -15%	21	-6.0%	-96%
- CCOc1ccccc1/C=N/NC(=O)c1nnn(-c2nonc2N)c1CN1CCCC1
  10%	x	-2.9%	1%
- Cc1c(NC(=O)Nc2ccccc2)c(=O)n(-c2ccccc2)n1C
  0%	x	-3.2%	-6%
- O=C(COn1nnc2ccc(Cl)cc21)NC12CC3CC(CC(C3)C1)C2
  -9%	0	-1.7%	-3%
- CC(NC(=O)CNC(=O)c1sc2ccccc2c1Cl)c1cccnc1 (configuration not stated)
  1%	x	-1.6%	-14%
- Cc1nnnn1/C(=C\c1ccccc1)C(=O)OCC(=O)NC(C)(C)C
  u	5	-0.7%	5%
- Cc1ccc(OCCC(=O)NNC(=O)c2ccccc2F)cc1
  -7%	x	-2.1%	x
- NC(=O)CSc1nc2cc([N+](=O)[O-])ccc2n1-c1cccc(C(F)(F)F)c1
  -12%	-7	-2.3%	-10%
- Cc1ccccc1NC(=O)c1sc2nc[nH]c(=O)c2c1C
  -10%	0	u	-26%
- CCn1c(=O)c(C2=NS(=O)(=O)c3ccccc3N2)c(O)c2ccccc21
  x	6	x	2%
- CCOC(=O)N1CCN(C(=O)c2cc3cc(C)ccc3[nH]2)CC1
  3%	x	0.8%	-9%
- CC(=O)c1c(C)[nH]c(C(=O)OCC(=O)NCc2ccc(Cl)cc2)c1C
  1%	x	5.3%	x
- COc1ccc(-c2noc(CCC(=O)N3CCN(c4cccc(OC)c4)CC3)n2)cc1
  -4%	x	6.2%	x
- CCOC(=O)NC(=O)COC(=O)c1ccc(Sc2ncn[nH]2)c([N+](=O)[O-])c1
  -4%	-2	-2.1%	-1%
- O=c1c(F)cn(C2CCCO2)c(=O)n1Cc1c(F)cccc1Cl (configuration not stated)
  7%	-1	-0.1%	-8%
- O=C(COc1ccc(Cl)cc1Cl)NC(=O)c1ccccc1
  2%	x	-1.5%	1%
- Cc1cccc(NC(=O)C2CCCN2S(=O)(=O)c2ccc(Cl)cc2)n1 (configuration not stated)
  3%	x	3.1%	14%
- Cc1nc2cc(Cl)c(Cl)cc2nc1C
  -1%	-6	0.8%	-64%
- O=C(c1ccc2c(=O)n3c(nc2c1)CCCCC3)N1CCN(c2ccc(F)cc2)CC1
  12%	-4	-3.9%	0%
- O=C(Oc1cccc(Br)c1)c1cccnc1
  0%	1	1.2%	2%
- O=C(O)c1cccc(Cn2c(Cl)c(/C=N/NC(=O)c3ccccc3)sc2=O)c1
  0%	12	1.0%	-12%
- CC1CCCC2(C1)NC(=S)N(c1ccccc1)N2 (configuration not stated)
  -3%	1	-5.4%	-24%
- O=C(CC1C(=O)NCCN1CC(c1ccccc1)c1ccccc1)NCC1CCOCC1 (configuration not stated)
  -3%	x	u	-3%
- CN(CC(=O)Nc1cccc(F)c1)C(=O)/C=C/c1cc(Br)ccc1OC(F)F
  -12%	x	-1.0%	x
- N#CCC(=O)Nc1ccc(C(=O)OCC(=O)N2CCN(C(=O)c3ccco3)CC2)cc1
  u	x	u	x

# This is a subset; rates above refer to the full screens.
